Compound activity as filed in PubChem.
HTR5A ag = HTR5A agonists in luminescence cell assay, primary screen, counter-screen for OPRM1-OPRD1 heterodimer agonist project, full-deck HTS; activation, % at 9.3 µM; AID 504692, 2011; cell-based; 5-hydroxytryptamine receptor 5A (Homo sapiens), P47898; 340,000 tested, 0.61% active; in the data active means activation mostly above about 9.5%, no sharp cut-off; inactive means mostly below about 7.6%;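 further: 0% = cells with vehicle only and 100% = reference agonist; strong numbers were not always called active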
Target sequence (P47898 whole entry, looked up): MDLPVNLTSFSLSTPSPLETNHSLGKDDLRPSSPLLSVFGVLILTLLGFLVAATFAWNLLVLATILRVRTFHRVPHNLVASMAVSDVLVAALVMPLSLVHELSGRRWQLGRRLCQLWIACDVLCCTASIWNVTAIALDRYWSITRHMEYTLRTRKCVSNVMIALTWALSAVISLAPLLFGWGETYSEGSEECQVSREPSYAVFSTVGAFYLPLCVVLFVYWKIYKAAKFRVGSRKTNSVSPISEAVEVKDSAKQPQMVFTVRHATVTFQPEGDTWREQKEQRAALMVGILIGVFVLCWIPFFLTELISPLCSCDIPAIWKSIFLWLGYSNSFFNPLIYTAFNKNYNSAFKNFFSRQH
PKA-R2B activ = activators of PKA-R2B holoenzyme, primary screen, biochemical, fluorescence polarization, Cy5-IP20, human. cAMP-dependent protein kinase catalytic subunit beta (Homo sapiens) + cAMP-dependent …. PKA-R2B holoenzyme dissociation; R2B truncated from residue 108, S112A mutant; 0% DMSO only, 100% 113 µM cGMP. activation, % at 11.4 µM. 340,000 tested, 0.079% active;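 active means activation above a cutoff set at the mean over all compounds plus 3 SD, cut at about 18% in these data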;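 further: higher means more holoenzyme dissociation and a rise in polarization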
DAGLB inhibitor = DAGLB lipase inhibitors, primary screen, biochemical, fluorescence, HTS | HEK293T DAGLB membrane lysate, EnzChek fluorogenic substrate | inhibition, % at 5.17 µM | Diacylglycerol lipase-beta (Homo sapiens), Q8NCG7 | 340,000 tested, 0.059% active; in the data active means inhibition above about 34%;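 further: 0% = enzyme with vehicle and 100% = wells lacking enzyme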
PKA-R1A act = activators of PKA-R1A holoenzyme, primary screen, biochemical, fluorescence polarization, Cy5-IP20, bovine R1A, mouse PKAc; activation, % at 11.4 µM; PKA-R1A dissociation; scaled: DMSO 0%, 113 µM cGMP 100%; 340,000 tested, 0.083% active; cAMP-dependent protein kinase type I-alpha regulatory subunit (Bos taurus) + …;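 active means percent activation above the mean of all tested compounds plus 3 SD, cut at about 19% in these data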;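 further: higher means more PKAc released from R1A so a rise in polarization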
Tat export inh = E. coli Tat export inhibitors, primary screen, MC4100, TorA-mCherry reporter, fluorescence, single point; AID 488895, 2010; 340,000 tested, 0.036% active; inhibition, % at 10 µM;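 active means mean replicate inhibition at least 50% and at least half of replicates individually reaching 50%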;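 further: exported cargo escapes ClpAP degradation while cytoplasmic cargo is degraded and loses fluorescence; 0% = median of neutral control wells and 100% = median of NaSCN control wells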
HTR5A inv ctr = HTR5A inverse agonists in luminescence cell assay, primary screen, counter-screen for OPRM1-OPRD1 heterodimer inverse agonist project, full-deck HTS. inhibition, % at 9.3 µM. HTR5A cell line, inverse agonism. 340,000 tested, 0.083% active. AID 504634, 2011; in the data active means inhibition mostly above about 23%, no sharp cut-off; inactive means mostly below about 18%;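 further: 0% = cells with DMSO and 100% = no-cell wells with DMSO; some compounds called inactive have numbers as strong as hits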
An asterisk follows results filed as active; i = inactive; & = joins results of further samples.

Assay codes – A = HTR5A ag; B = PKA-R2B activ; C = DAGLB inhibitor; D = PKA-R1A act; E = Tat export inh; F = HTR5A inv ctr
1: COc1ccccc1C(=O)NNC(=S)NC(=O)c1ccco1
  A: -4	B: -14	C: 1	D: -7	E: -3	F: 14

2: Cc1c2cc(O)c(=O)cc-2oc2cc(O)c(O)cc12
  A: -3	B: 11	C: 2	D: -9	E: 17	F: 6

3: Nc1nonc1-n1nnc(C(=O)N/N=C/c2ccncc2)c1-c1ccccc1
  A: -4	B: 5	C: 1	D: -16	E: 12	F: -7

4: CC(C)n1cnc2c(Nc3cccc(Cl)c3)nc(N(CCO)CCCO)nc21
  A: -3	B: 0	C: 3	D: -1	E: 0	F: 5

5: COc1ccc2nc(C(F)(F)Cl)c(C#N)c(N)c2c1
  A: 2	B: 11	C: -2	D: -1	E: 7	F: -8

6: Oc1ccc(-c2nc(-c3ccc(F)cc3)c(-c3ccncc3)[nH]2)cc1
  A: -2	B: i	C: 4	D: -4	E: -13	F: -19

7: CC(C)(C)c1ccc(-n2ncc3c2CCCC3NC(=O)CCN2CCCC2=O)cc1 (centres undefined)
  A: 5	B: 6	C: 0	D: -8	E: -1	F: 11

8: NCCCC(=O)O
  A: 4	B: -1	C: 2	D: 1	E: 4	F: -4

9: c1ccc2c(-c3ccncc3)c[nH]c2c1
  A: -2	B: -7	C: 2	D: -10	E: 0	F: 4

10: Cc1ccc(-c2nn(C(C)(C)C)c3ncnc(N)c23)cc1
  A: 0	B: 0	C: -2	D: -2	E: 1	F: -38

11: CN[C@H]1CC[C@@H](c2ccc(Cl)c(Cl)c2)c2ccccc21
  A: 7&0	B: -10&5	C: 2&2	D: -12&-2	E: -9&-2	F: -24&-22

12: O=C1C(c2c(O)[nH]c3ccccc23)=Nc2ccccc21
  A: -5	B: -6	C: 6	D: -1	E: -2	F: -7

Sorted by the number under DAGLB inhibitor (lowest first): some entries from above.
No.	canonical_smiles	DAGLB inhibitor
5	COc1ccc2nc(C(F)(F)Cl)c(C#N)c(N)c2c1	-2
1	COc1ccccc1C(=O)NNC(=S)NC(=O)c1ccco1	1
2	Cc1c2cc(O)c(=O)cc-2oc2cc(O)c(O)cc12	2
4	CC(C)n1cnc2c(Nc3cccc(Cl)c3)nc(N(CCO)CCCO)nc21	3
12	O=C1C(c2c(O)[nH]c3ccccc23)=Nc2ccccc21	6

Complete entries as entered above. Values in the order: HTR5A ag	PKA-R2B activ	DAGLB inhibitor	PKA-R1A act	Tat export inh	HTR5A inv ctr
Nc1nonc1-n1nnc(C(=O)N/N=C/c2ccncc2)c1-c1ccccc1 in the list: -4	5	1	-16	12	-7
CN[C@H]1CC[C@@H](c2ccc(Cl)c(Cl)c2)c2ccccc21 in the list: 7&0	-10&5	2&2	-12&-2	-9&-2	-24&-22
Cc1c2cc(O)c(=O)cc-2oc2cc(O)c(O)cc12 in the list: -3	11	2	-9	17	6

A portion of the library; the hit share may differ from the screen's.
